Assay outcomes as filed in PubChem.
Tg IFNy HTS: T. gondii growth inhibition under IFN-gamma | Toxoplasma gondii growth in IFN-gamma-treated host cells; hits give low values; reference of the scale not given here | activity change, negative = inhibition, %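 (about 20 µM by stock and volumes)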 | actives 3.8% (n = 69,000);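 active = below -70%; inconclusive = fit judged invalid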;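 note: host cells are HeLa cells infected with Toxoplasma gondii; parasite growth read as luciferase light; one replicate is shown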
Starred values were filed as active, the others as inactive; ? = inconclusive; & = joins results of further samples. A portion of the library. The share of hits here may be higher or lower than overall.

SMILES	Tg IFNy HTS
N#C[C@@H]1[C@H](c2ccccc2C2=CCCCC2)[C@@H](CO)N1C(=O)c1ccccn1	-50
Cc1cccc(OCc2ccc(C(=O)N3CCOCC3)o2)c1	24
COc1ccc2nc(NC(=O)CC3(CC(=O)O)CCCCC3)sc2n1	22
O=C(Nc1ccc(F)cc1)N1CC(=O)N2[C@@H](CO)[C@@H](c3ccc(-c4cccc(F)c4)cc3)[C@@H]2C1	-53
CCOC(=O)N1CCC2(CC1)OC(=O)C(C)=C2C(=O)NCCc1ccc(Cl)cc1	95
COc1ccc(NC(=O)C2CC3(CCN(C)CC3)c3ccccc32)cc1 (stereo not drawn)	2
COc1ccc(C)cc1NCc1ccccc1C	18
Cn1nnc2c1CCN(S(C)(=O)=O)C2COCc1cccnc1 (stereo not drawn)	-52
CN(Cc1cc(-c2ccccc2)on1)C(=O)CCC(=O)NC1CCCC1	5
O=C(NCCCc1nc2ccccc2[nH]1)c1cnnn1-c1ccccc1	1
CCOC(=O)c1ccccc1OC(=O)CCCCCCCC(=O)Oc1ccccc1C(=O)OCC	39
N#Cc1c(N)sc(-c2ccoc2)c1-c1ccco1	50
COc1ccc(C(=O)N2CCOCC3(CN(Cc4ccoc4)CCO3)C2)cc1 (stereo not drawn)	0
COc1ccccc1OCC(O)CO (stereo not drawn)	2&-27
CC(C)N1c2ccccc2[C@@H]2CN(C(=O)C3CC3)CC[C@H]21	12
Cc1nc(-c2ccc(NC(=O)C(C)(C)C)cc2)c(-c2ccccc2)o1	25
O=C(NCc1cccnc1-n1ccnc1)c1c[nH]c2ccccc12	8
CCOC(=O)c1ccc(S(=O)(=O)n2c(Cc3cccs3)nc3ccccc32)cc1	38
CCOC(=O)c1sc(NC(=O)CSc2nnnn2-c2cccc(OC)c2)nc1C	-43
Cn1cncc1CN1CCC(c2nc3ccc(F)cc3cc2N)CC1	25
COCc1nc2c(o1)CN(Cc1cccnc1OC)C2	-26
O=C(Cc1ccc(F)cc1)N1CCn2c(Cn3cccn3)cnc2C1	-40
CCCN(CCC)S(=O)(=O)c1ccc(C(=O)NCCc2ccc(OC)c(OC)c2)cc1	-47
CO[C@H]1CN(C)C(=O)c2ccc(NC(=O)c3cc(C)on3)cc2OC[C@@H](C)NC[C@@H]1C	67
Cc1cnc(C)c(-c2cc(O)c3c(c2)CN(C(=O)C2CCOCC2)CCO3)n1	0
COc1ccc(NC(=O)N(C)C[C@@H]2Oc3c(NC(=O)CCCCCC(=O)Nc4ccccc4N)cccc3C(=O)N([C@@H](C)CO)C[C@@H]2C)cc1	9
Cc1[nH]c(=O)[nH]c(=O)c1NS(=O)(=O)c1ccccc1	-3
COc1ccccc1-c1ccc2n(c1=O)C[C@H]1[C@H](CO)[C@@H](C(=O)N3CCOCC3)[C@@H]2N1CC1CC1	0
CO[C@@H]1CCN(C(=O)N(C)C)C[C@@H]1Cc1cccc(C)c1	-44
CCN1CC[C@@]2(C(=O)Nc3ccccc3)CCN(S(=O)(=O)c3cccc(F)c3)CC[C@H]12	-3
CC1(C(=O)O)CCC(C(=O)N2CCOCC2)C1(C)C (stereo not drawn)	-1
OCCOc1cccc(-c2nc[nH]c2-c2ccccc2)c1	22
CCCC(=O)Nc1ccc2c(c1)C(=O)N(C)[C@H]1CC[C@@H](CC(=O)NCc3cccc(F)c3)O[C@@H]1CO2	8
CC12CCC(c3nnc(SCC(=O)c4ccc5ccccc5c4)nc31)C2(C)C (stereo not drawn)	46
COc1ccc(CNCC2Cn3nnc(-c4cnn(C)c4)c3CO2)cc1 (stereo not drawn)	112
CN(Cc1ccc2nsnc2c1)Cc1ccccc1C(=O)O	3
CC(=O)CC/C=C(\C)CC/C=C(\C)CC/C=C(\C)CCC=C(C)C	-77*
N#Cc1cc(CN2CCC(Nc3ncnc4sc(Cl)cc34)CC2)ccc1F	8
O=C(c1cccnc1)N1CCc2c([nH]c3ccccc23)C1c1ccc(Cl)cc1 (stereo not drawn)	-114*
COC(=O)c1ccc(NC(=O)C23CCC(C)(C(=O)O2)C3(C)C)cc1 (stereo not drawn)	-5

Reprinted from the part before: 6 compounds; new compounds follow.
SMILES	Tg IFNy HTS
COc1ccc(CNCC2Cn3nnc(-c4cnn(C)c4)c3CO2)cc1 (stereo not drawn)	112
CN(Cc1ccc2nsnc2c1)Cc1ccccc1C(=O)O	3
CC(=O)CC/C=C(\C)CC/C=C(\C)CC/C=C(\C)CCC=C(C)C	-77*
N#Cc1cc(CN2CCC(Nc3ncnc4sc(Cl)cc34)CC2)ccc1F	8
O=C(c1cccnc1)N1CCc2c([nH]c3ccccc23)C1c1ccc(Cl)cc1 (stereo not drawn)	-114*
COC(=O)c1ccc(NC(=O)C23CCC(C)(C(=O)O2)C3(C)C)cc1 (stereo not drawn)	-5
CN(CCc1ccccc1)c1nc(CCN)nc2ccccc12	-28
CC(C)CN(C)Cc1c(C(=O)N2CCc3ccccc3C2)nc2ccc(Cl)cn12	-8
c1ccc(COCC23CCCOC2CCN(Cc2ccoc2)C3)nc1 (stereo not drawn)	8
COc1ncccc1C(=O)N1CC[C@H]2C[C@H](c3n[nH]c(C)n3)O[C@H]2C1	103
NCC[C@@H]1CC[C@@H](NC(=O)Cc2ccncc2)[C@H](CO)O1	3
COC(=O)c1cc(C)nc2c1c(=O)n(Cc1nc(-c3ccccc3)oc1C)c(=O)n2-c1ccccc1	-15
CCc1ccc2nc(-c3ccc(F)cc3)nc(SCc3c(F)cccc3Cl)c2c1	-3
COCCNC(=O)[C@@]12COC[C@@H]1CN(Cc1ccc3ccccc3n1)C2	9
Cc1cccc(-c2noc(-c3c(O)c4ccccc4n(C)c3=O)n2)c1	-5
O=C(NCc1ccc2c(c1)OCO2)c1c(O)c2ccccc2n(-c2ccccc2)c1=O	21
CSc1nc(C)c(CC(=O)NCCn2ccc(C)n2)c(=O)[nH]1	-7
O=C(NC1CCCCCCC1)C1CC(=O)N(CCc2c[nH]c3ccc(Cl)cc23)C1 (stereo not drawn)	-92*
O=C(Nc1cccc(-n2cccn2)c1)C1CCN(S(=O)(=O)c2ccc(F)cc2)C1 (stereo not drawn)	-51
CN1CCCC(OC(=O)c2ccc3c(c2)OCCO3)C1 (stereo not drawn)	31
COc1ccc2c(c1)CCCN2C(=O)NC(=O)c1c(F)cccc1Cl	56
C[C@@H]1CCCCO[C@@H](CN(C)C(=O)Nc2ccccc2)[C@@H](C)CN([C@@H](C)CO)C(=O)c2cc(NC(=O)Nc3ccccc3)ccc2O1	247
CC(C)C[C@H](N[C@@H](Cc1cncn1Cc1cc(Cl)cc(Cl)c1)C(=O)O)C(=O)O	11
Cc1cc(C(=O)Nc2ccc3c(c2)C(=O)N(C)[C@@H]2CC[C@@H](CC(=O)NCc4ccc(-c5ccccc5)cc4)O[C@@H]2CO3)no1	-60
CN1c2ccc(Br)cc2[C@H]2[C@H](CCN2S(=O)(=O)c2ccccc2F)[C@@H]1CO	13
O=C(Nc1ccc2oc3ncccc3c(=O)c2c1)c1cc2ccccc2s1	?

Two entries drawn at random from those above, as already listed:
SMILES	Tg IFNy HTS
O=C(NCc1ccc2c(c1)OCO2)c1c(O)c2ccccc2n(-c2ccccc2)c1=O	21
CCc1ccc2nc(-c3ccc(F)cc3)nc(SCc3c(F)cccc3Cl)c2c1	-3

As entered above:
Cc1cc(C(=O)Nc2ccc3c(c2)C(=O)N(C)[C@@H]2CC[C@@H](CC(=O)NCc4ccc(-c5ccccc5)cc4)O[C@@H]2CO3)no1 in Tg IFNy HTS reads -60
CCCN(CCC)S(=O)(=O)c1ccc(C(=O)NCCc2ccc(OC)c(OC)c2)cc1 in Tg IFNy HTS reads -47
COc1ccc(CNCC2Cn3nnc(-c4cnn(C)c4)c3CO2)cc1 (stereo not drawn) in Tg IFNy HTS reads 112
CCCC(=O)Nc1ccc2c(c1)C(=O)N(C)[C@H]1CC[C@@H](CC(=O)NCc3cccc(F)c3)O[C@@H]1CO2 in Tg IFNy HTS reads 8
CCOC(=O)N1CCC2(CC1)OC(=O)C(C)=C2C(=O)NCCc1ccc(Cl)cc1 in Tg IFNy HTS reads 95
COc1ccccc1-c1ccc2n(c1=O)C[C@H]1[C@H](CO)[C@@H](C(=O)N3CCOCC3)[C@@H]2N1CC1CC1 in Tg IFNy HTS reads 0

(more compounds)
SMILES	Tg IFNy HTS
C[C@H](CO)N1C[C@H](C)[C@@H](CN(C)S(=O)(=O)c2cccc(C#N)c2)OCc2ccccc2-c2ccccc2C1=O	-24
CCOCC(=O)N1CCC2C1CCC(=O)N2c1cnn(C)c1 (stereo not drawn)	4
CCCNC(=O)N1CC2(CCN(C(=O)C3CCOCC3)CC2)c2c([nH]c3cc(OC)ccc23)[C@@H]1CO	25
O=c1n(Cc2ccncc2)nc(C(F)(F)F)c2cccn12	10
CCCNC(=O)N1C[C@@H](O)COC[C@@H]2O[C@H](CC(=O)OC)CC[C@H]21	-24
Clc1ccc(-c2nc(NCc3ccc4c(c3)OCO4)c3ccccc3n2)cc1	-71
O=c1cc(-c2ccccc2O)oc2cc(O)ccc12	210
O=C(Nc1ccncc1)c1c(O)c2ccccc2n(-c2ccccc2)c1=O	23
COc1cccc(OCCN2CCN(c3ncnc4c3CCNC4)CC2)c1	-53
S=C(c1ccc(Cl)cc1)N1CCCCC1	-3
O=C(Cn1ncc2c(N3CCCC3)ncnc21)Nc1ccc2c(c1)OCCO2	58
C[C@@H]1CN([C@H](C)CO)C(=O)c2cc(NS(=O)(=O)c3cccs3)ccc2O[C@@H]1CN(C)S(=O)(=O)c1ccc(Cl)cc1	-16
CC1Nc2ccc(Cl)cc2S(=O)(=O)N1 (stereo not drawn)	10
O=C(NC[C@@H]1[C@@H](c2ccccc2)[C@H](CO)N1Cc1ccccn1)C1CCCC1	-12
Cc1ccc(C(=O)Nc2ccc(-c3nc(Cn4nc(C)cc4C)c(C)o3)cc2)c(C)c1	115
CCn1c(C2CCN(C(=O)c3ccc(-c4ccccc4)[nH]3)CC2)n[nH]c1=O	26
COc1ccc(S(=O)(=O)CCNS(=O)(=O)c2c(C)n[nH]c2C)cc1	-23
CN(C)Cc1nc2c(o1)CN(S(=O)(=O)c1ccccc1)C2	-41
O=C(NCC[C@@H]1CC[C@H](NC(=O)c2ccncc2)[C@@H](CO)O1)Nc1ccc(Cl)cc1	11
Cc1cc2oc(=O)cc(C)c2cc1NC(=O)[C@@H]1CCC(=O)N1	-35
COc1ccccc1S(=O)(=O)N1C[C@@H]2N[C@H](C1)C2c1ccc(-c2cccnc2)cc1 (stereo partly drawn)	-10&-6
CC(C)NC(=O)N1CCC2(CC1)CC(c1ccncc1)C(=O)N2 (stereo not drawn)	5
Cc1cnc(C(=O)N2CCCn3cnc(CN(C)C(C)C)c3C2)cn1	-20
NCC(=O)N[C@@H](CCC(N)=O)C(=O)O	-3
O=C(c1c(O)cccc1O)N1CCC(c2cc(Cc3ccccc3)[nH]n2)CC1	-1
CSc1n[nH]c(NS(=O)(=O)c2cccc(C(F)(F)F)c2)c1-c1ccccn1	12
Cc1ccc2[nH]c(C(=O)O)c(CN(C)Cc3ncc[nH]3)c2c1	-2
CCCN1CCN(C(=O)C2CCC2)C(Cc2ccccc2-c2ccncc2)C1=O (stereo not drawn)	-17
Cc1noc(-c2cc(=O)n(CC(=O)Nc3ccc(N(C)C)cc3)c3ccccc23)n1	132
CN(Cc1cccc2ncccc12)C(=O)CCC1(Cc2cccc3ccccc23)CCC(=O)N1 (stereo not drawn)	0
CC(C)(CCC(=S)N1CCOCC1)C1CCCCC1	21
O=C(Cn1ncc2c(N3CCCC3)ncnc21)NCc1ccc(F)cc1	-61
CC(C)C(=O)c1nc2c(s1)CCCN2c1ccccc1	-23
CN(C)c1ncc2c(n1)C1(CCN(c3ncc(F)cn3)C1)COC2 (stereo not drawn)	152
Cc1ccc(C)c(OCC(=O)N2CCC(c3nnc4n3CCCCC4)CC2)c1C	-13
CCOc1ccc(S(=O)(=O)N2CCC3(CC2)Nc2ccc(C)c(C)c2-n2cccc23)cc1	-28
c1ccc2c3c(cc(N4CCOCC4)c2c1)OC1(N2CCOCC2)CCCCC1O3 (stereo not drawn)	72
O=C(CSc1ccccc1)N1CCc2ccccc21	340
CN1C(=O)c2cc(NC(=O)c3cnccn3)ccc2OC[C@@H]2O[C@@H](CC(=O)NCC3CCCCC3)CC[C@H]21	15
C[C@@H]1CN([C@H](C)CO)C(=O)Cc2cc(NC(=O)c3ccncc3)ccc2O[C@@H]1CN(C)C(=O)Nc1ccc(F)cc1	-21
COc1ccccc1C1(NC(=O)c2cnccn2)CCCC1	6
C[C@@H]1CN([C@H](C)CO)C(=O)c2cc(NC(=O)Nc3ccccc3)ccc2O[C@H]1CN(C)Cc1ccccc1	-5
COc1ccccc1N1CC(NC(=O)C2=NN(C)C(=O)CC2)CC1=O (stereo not drawn)	9
COc1ccc(-c2csc(CCNC(=O)C(C)n3cc(Cl)cn3)n2)cc1 (stereo not drawn)	25
Cc1ccccc1NC(=O)C12CCC(C)(c3nc4ccccc4nc31)C2(C)C (stereo not drawn)	-68
CCN(Cc1ccccc1)C(=O)c1cc2cccnc2n(Cc2ccccc2F)c1=O	-40
Cc1cc(C)c(CN(C)Cc2nc(C)no2)c(-n2cccn2)c1	3
Cc1ccc(C2(O)CCN(CC3CC=CCC3)CC2)nc1 (stereo not drawn)	69
COc1cccc(CN(Cc2ccccn2)Cc2ccnc3ccccc23)c1OC	-2
Cc1ccc(CN2C[C@H]3COC[C@@H](C(=O)N4CCCCO4)[C@H]3C2)o1	5
CCN(C)c1ncnc2c1CCN(c1ccc(C)nn1)CC2	-14
CCc1ccc(N(C(=O)c2ccc(NC(C)=O)cc2)C2(C(=O)NCc3ccccc3)CCN(C(C)=O)CC2)cc1	96
C[C@H]1CCCCO[C@H](CN(C)Cc2ccncc2)[C@@H](C)CN([C@@H](C)CO)C(=O)c2cc(NS(=O)(=O)c3ccc(Cl)cc3)ccc2O1	-47
CN(C)S(=O)(=O)c1ccc(C(=O)Nc2ccc3ncccc3c2)cc1	68
COc1cc(C(=O)Nc2ccc(N3CCCCC3)c(C(F)(F)F)c2)nc(OC)n1	-82*
CCOc1ccc2nc(N3CCCN(Cc4ccc5ccccc5n4)CC3)nc(C)c2c1	15
O=c1ncn(Cc2ccccn2)cc1-c1ccccc1	44
C=CCOCc1nnn2c1CN(C1CCOCC1)CCC2	-20
Cc1occc1-c1nnc2sc(Cc3cccc4ccccc34)nn12	35
Cc1ccc(NC(=O)N2Cc3c(CN4CCCCC4)nn(C)c3C2)cc1	5
O=C(O)c1ccc(C2CCN(Cc3nc4ccccc4[nH]3)C2)cc1 (stereo not drawn)	0
